Screening data: PubChem, National Center for Advancing Translational Sciences (NCATS)
PINK1 expr mod: changes PINK1 expression. PINK1 immunofluorescence, high-content cytometry, 24 h. Potency, µM (top dose mostly 76.6 µM), for inactives: at the top dose activation (PINK1 increase), most hits filed as activators. 410,000 tested, 0.2% active. AID 624263; active = well fitted activation curve with a large enough effect; inconclusive = small, poorly fitted or top-dose-only effect; inactive = flat fitted curve, though single readings scatter; cell line not stated here;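 also: potency is read from the fitted curve at half-maximal effect; % of control where 0% means no effect; nearly all actives have a fitted effect of over 65% in size; a mitochondrial uncoupler was the plate control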
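Readout is PINK1 immunofluorescence, quantified alongside mitochondrial, cell and nuclear markers by laser-scanning microplate cytometry. Cells from a stable line were exposed to compound titrations (5 concentrations) for 24 hours, with CCCP controls.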
TRPML1 inh: human mucolipin-1 channel inhibition | 390,000 tested, 0.02% active | AID 624415 | TRPML1-inducible cells, Ca2+ dye fluorescence, FDSS; active compounds read low; inhibition of EC80 agonist-evoked calcium signal | Q9GZU1 | activity change, negative = inhibition, % (test concentration not listed); in the data active means activity change below about -50%; inconclusive means about -30% to -50%; inactive means above about -30%;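 also: stimulus is agonist 54-4 at its EC80 concentration; % is scaled to controls: 0 for no effect and ±100 for the full control effect; compound concentration not given in the record; the text of the record puts the active cut at -80%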
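TRPML1-DL cells, Tet-induced overnight (~16 h, 37 °C) at 1,500 cells/well, were loaded with Ca8 no-wash dye plus quencher for 45-90 min at room temperature. Compounds were pinned during FDSS kinetic reading; agonist 54-4 at EC80 (4 uM final) then added.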
ClpP mod: qHTS Assay for Activators of ClpP. ATP-dependent Clp protease proteolytic subunit (Bacillus subtilis (strain 168)), P80244. purified B. subtilis ClpP, FRET peptide cleavage, 20 min. Potency, µM (titrated, usually from 57.5 µM), without a hit: at the top dose activity change, negative = active. 340,000 tested, 1.9% active; active = well fitted falling curve with a large enough effect; inconclusive = small, poorly fitted or top-dose-only effect; inactive = no such curve, though single readings can be large or run the other way; also: potency is read from the fitted curve at half-maximal effect; the source files actives as falling curves though it sought activators and does not explain the sign; nearly all actives have a fitted effect of over 65% in size; many hits overshoot -100%
Target sequence (P80244 whole entry, looked up): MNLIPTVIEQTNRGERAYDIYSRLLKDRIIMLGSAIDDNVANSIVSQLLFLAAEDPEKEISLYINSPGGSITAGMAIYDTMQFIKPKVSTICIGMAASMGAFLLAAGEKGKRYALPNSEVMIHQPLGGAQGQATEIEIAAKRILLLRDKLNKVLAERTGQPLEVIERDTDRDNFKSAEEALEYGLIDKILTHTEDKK
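Purified B. subtilis ClpP, 10 microg/mL final in Tris/HCl pH8 with KCl, BSA, glycerol and Tween-20, cleaved an Abz/nitrotyrosine-quenched decapeptide. Fluorescence (ex 320, em 430) was read at 0 and 20 min at room temperature. Delta was normalized to 5.8 microM ADEP and DMSO/no-enzyme controls.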
Sfp inh: blocks B. subtilis Sfp PPTase activity; Q9F4F7; AID 1490; 310,000 tested, 3.5% active; Biochemical Sfp PPTase activity, qHTS; Potency, µM, for inactives: max response, negative = inhibition, actives largely listed as inhibitors; active = well fitted inhibition curve with a large enough effect; inconclusive = small, poorly fitted or top-dose-only effect, or another doubt; inactive = no such curve, though single readings can be large or run the other way;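 also: the enzyme is Sfp with the accession as filed and its product quenches rhodamine fluorescence; potency is read from the fitted curve at half-maximal effect; 0% = enzyme reaction without inhibitor and -100% = no enzyme wells; top concentration of the series not given in the record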
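With Hepes-Na pH 7.6 buffer containing 10 mM MgCl2, Sfp (15 nM) modified BHQ-2-YbbR (12.5 uM) using rhodamine-CoA (5 uM). Two reads 30 minutes apart at 525/598 nm yielded each well's rate.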
TRPML1 ag: agonists of human TRPML1 channel; 410,000 tested, 0.12% active; activation, % (test concentration not listed); Q9GZU1; AID 624414; TRPML1-expressing cells, Ca2+ dye fluorescence, FDSS; host cell line not named in the record; reference of the full effect not given here; in the data active = activation above about 50%; inconclusive = about 30% to 50%; inactive = below about 30%; also: 0% is about no effect; the text of the record puts the active cut at 80%
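Cells: TRPML1-DL, 1X Tet inducer, ~16 h at 37 degrees C/5% CO2. Dye: ABD Ca8 no-wash + quencher, 45-90 min RT. Read: 10 s baseline, compound add, 110 s agonist phase; 54-4 EC80 (4uM final), 110 s antagonist phase.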
TRPV1 potentiator: human TRPV1 potentiation | TRPV1-expressing cells, Fluo-8 calcium influx, capsaicin EC20 potentiation; host cell line not named in the record; control for the full effect not named in the record | potentiation, % at 8.33 µM | 320,000 tested, 0.02% active; active means potentiation above 80%; inconclusive means 30% to 80%; inactive means below 30%; also: 0% is about no effect
Target sequence (Q8NER1 whole entry, looked up): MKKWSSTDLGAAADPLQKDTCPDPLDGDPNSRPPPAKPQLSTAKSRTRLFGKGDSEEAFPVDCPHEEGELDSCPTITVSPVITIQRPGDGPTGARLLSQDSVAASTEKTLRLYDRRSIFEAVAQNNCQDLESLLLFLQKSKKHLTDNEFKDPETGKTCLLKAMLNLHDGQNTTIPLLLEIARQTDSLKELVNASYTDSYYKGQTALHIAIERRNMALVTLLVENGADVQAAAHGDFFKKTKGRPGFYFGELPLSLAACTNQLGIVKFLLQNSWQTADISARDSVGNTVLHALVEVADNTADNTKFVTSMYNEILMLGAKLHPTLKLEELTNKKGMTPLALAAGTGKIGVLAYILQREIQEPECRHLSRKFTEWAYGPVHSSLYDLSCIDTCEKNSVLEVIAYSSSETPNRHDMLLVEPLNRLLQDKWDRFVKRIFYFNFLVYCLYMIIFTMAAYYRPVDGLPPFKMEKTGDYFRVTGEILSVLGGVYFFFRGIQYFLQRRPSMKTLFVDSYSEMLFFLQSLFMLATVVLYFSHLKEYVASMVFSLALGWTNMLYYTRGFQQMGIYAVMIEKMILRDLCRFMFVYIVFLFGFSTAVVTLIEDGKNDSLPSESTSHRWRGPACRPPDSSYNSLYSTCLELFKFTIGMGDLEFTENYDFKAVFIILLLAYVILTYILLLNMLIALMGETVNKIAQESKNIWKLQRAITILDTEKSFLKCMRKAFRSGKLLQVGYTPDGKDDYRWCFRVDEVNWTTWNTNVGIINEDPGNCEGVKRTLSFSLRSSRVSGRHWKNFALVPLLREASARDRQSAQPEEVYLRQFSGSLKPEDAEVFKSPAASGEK
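TRPV1-expressing cells were cultured overnight at 35.5C and loaded with Fluo-8 calcium dye for 40 to 90 min at room temperature. After a 10 s baseline, compound was added and calcium influx was read kinetically for 3 min (ex 480/em 520 nm).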
Menin MLL FP FL: menin-MLL binding inhibition, fluorescein peptide. Fluorescence polarization, fluorescein-MLL peptide displacement from menin. FP activity change, % at 61.4 µM. 290,000 tested, under 10 active; inconclusive = falling polarisation curve, or a change in total fluorescence; inactive = total fluorescence flat and polarisation flat or rising; no compound was filed as active; the % refers to the polarisation; negative = inhibition;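 also: % of control where 0% means no effect; inhibitors lower the polarisation; unlabelled MLL peptide was the positive control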
The depositor's hits bear a star; ? = inconclusive; nt = not tested or not shown; [ ] = another dose, or the depositor's remark. An unsorted share of the library (roughly 4.4% active in at least one column).

Structure	PINK1 expr mod	TRPML1 inh	ClpP mod	Sfp inh	TRPML1 ag	TRPV1 potentiator	Menin MLL FP FL
Cc1ccc(C)c(-n2nnnc2Sc2nc([N+](=O)[O-])nn2C)c1	0.9%	-8	2.2%	0%	-0.5	11	1.5
COc1ccc(OC)c(NC(=O)CN(Cc2ccccc2)S(C)(=O)=O)c1	1.8%	-2	1.7%	-4%	-0.4	9	-0.4
C(=N\Nc1nc(-c2ccccn2)nc2ccccc12)/c1ccccc1	-1.2%	-6	nt	-2%	0.9	3	7.8
O=C(c1cccc(F)c1)N1CCC2(CCCN(c3ccccc3)C2)CC1	0.6%	nt	nt	3%	nt	nt	4.9
Cc1oc2ncnc(N3CCOCC3)c2c1C(=O)NCc1ccc(Cl)cc1	-8.4%	18	0.7%	nt	0.7	nt	nt
Cc1ccc(-c2noc(CCCC(=O)NC3CCCCC3)n2)cc1	0.7%	8	-5.7%	12%	-0.8	0	-22
CN(C)CCCN(C(=O)c1ccc(C(=O)c2ccccc2)cc1)c1nc2cc3c(cc2s1)OCO3	-2.6%	-13	1.5%	-20%	1.6	5	2.7
Cc1ccc(-n2c(NN)nc3ccccc3c2=O)c(C)c1	-0.3%	-9	-3.1%	-11%	-0.2	-1	nt
O=C(NCc1ccccc1Cl)c1[nH]c(C(F)(F)F)nc1-c1ccccc1	1.9%	2	-0.2%	nt	-0.2	nt	nt
COC(=O)[C@@H](Cc1c[nH]c2ccccc12)NC(=O)C1CCCN(S(=O)(=O)c2ccc(C)cc2)C1 (some centres not stated)	2.0%	-11	-1.0%	5%	3.8	3	-4.8
CCOC(=O)c1ccc(N2C(=O)c3n[nH]c(C)c3C2c2ccccn2)cc1 (configuration not stated)	0.7%	-6	-3.8%	17%	0.1	nt	0.8
C[C@H](NC(=O)CCCn1nnc2ccccc2c1=O)C(=O)O	1.1%	4	nt	7%	-0.7	-6	3.0
Cc1cccc(C(=O)NCC(=O)N2CCCC2)c1	-1.3%	14	0.4%	24%	-0.5	3	nt
Cc1ccc(C(C)C)c(OCC(=O)NCC(c2cccs2)N2CCOCC2)c1 (configuration not stated)	4.1%	-4	nt	nt	-0.2	2	nt
O=C(Nc1ccccc1N1CCCC1)c1ccccc1Cl	3.0%	3	nt	12%	-0.3	-6	-1.1
CC1=C(C(=O)OC(C)C)C(C2CC=CCC2)NC(=O)N1 (configuration not stated)	nt	0	-5.5%	12%	-0.3	1	1.7
Cn1cnnc1SCc1ccc(C#N)cc1Cl	nt	-8	-0.4%	10%	0.4	0	3.6
COc1ccc2c(c1)CCC2=O	0.9%	nt	0.4%	nt	-0.1	nt	nt
COc1cccc(CNC(=O)c2oc3c(c2C)-c2nn(Cc4cccc(Cl)c4)cc2CC3)c1OC	-0.4%	38	-28%	nt	1.4	nt	nt
CC1CCN(C(=O)C2c3ccccc3C(=O)N3CCc4ccccc4C23)CC1 (configuration not stated)	3.3%[38.3 µM]	-6	-2.8%	-2%	-0.2	-6	4.0

Sorted by molar mass (largest number first): part of the list above
Structure	PINK1 expr mod	TRPML1 inh	ClpP mod	Sfp inh	TRPML1 ag	TRPV1 potentiator	Menin MLL FP FL
COc1cccc(CNC(=O)c2oc3c(c2C)-c2nn(Cc4cccc(Cl)c4)cc2CC3)c1OC	-0.4%	38	-28%	nt	1.4	nt	nt
COc1ccc(OC)c(NC(=O)CN(Cc2ccccc2)S(C)(=O)=O)c1	1.8%	-2	1.7%	-4%	-0.4	9	-0.4
C(=N\Nc1nc(-c2ccccn2)nc2ccccc12)/c1ccccc1	-1.2%	-6	nt	-2%	0.9	3	7.8
O=C(Nc1ccccc1N1CCCC1)c1ccccc1Cl	3.0%	3	nt	12%	-0.3	-6	-1.1
CC1=C(C(=O)OC(C)C)C(C2CC=CCC2)NC(=O)N1 (configuration not stated)	nt	0	-5.5%	12%	-0.3	1	1.7
COc1ccc2c(c1)CCC2=O	0.9%	nt	0.4%	nt	-0.1	nt	nt

(next part)
Structure	PINK1 expr mod	TRPML1 inh	ClpP mod	Sfp inh	TRPML1 ag	TRPV1 potentiator	Menin MLL FP FL
CCN(C(=O)COC(=O)c1sccc1C)c1c(N)n(Cc2ccccc2)c(=O)[nH]c1=O	-2.9%	2	-2.4%	nt	-0.6	1	nt
CCOc1cc(/C=C2\SC(=S)N(NS(=O)(=O)c3ccccc3)C2=O)ccc1O	-0.1%	29	-0.3%	-15%	2.7	21	?
O=C(c1cccs1)N1CCN(CCCc2ccccc2)CC1	2.5%[38.3 µM]	18	-0.5%	-17%	2.1	-3	9.6
Cc1cc(NC(=O)c2c(C)noc2C)no1	3.6%	-11	nt	25%	1.1	3	-0.5
N#C/C(=C\c1cc(O)c(O)c(O)c1)C(N)=O	0.9%	-12	0.0%	3.5µM*	1.2	18	?
Cn1cccc1C(=O)OCC(=O)Nc1cccc(S(=O)(=O)N2CCOCC2)c1	1.6%	15	0.6%	6%	0.1	9	1.4
O=C(NCCC1=CCCCC1)c1ccc2c(c1)N(Cc1ccccc1)C(=O)CS2	-4.6%[38.3 µM]	-9	-2.7%	-4%	2.9	0	3.3
CCCCCn1c(N)c(-c2nc3ccccc3s2)c2c([N+](=O)[O-])nn(CC)c(=O)c21	?	-3	-3.2%	?	-0.2	-10	4.1
O=C(NCc1ccco1)C(c1cccs1)N(C(=O)C1COc2ccccc2O1)c1cccc(O)c1 (configuration not stated)	-0.8%	7	1.0%	-2%	-0.7	0	4.5
CN(Cc1c(C(=O)N/N=C/c2cccs2)nnn1-c1nonc1N)c1ccccc1	1.5%	2	-1.4%	14%	1.5	-10	2.4
CCOc1ccc(/C=C/C2=NNC(=O)CC2)cc1	0.3%	10	nt	10%	1.2	10	-6.5
CCC(CC)C(=O)c1c[nH]c(C(=O)N2CCN(c3ccc(OC)cc3)CC2)c1	-0.4%	15	-2.0%	16%	-0.5	-2	-4.4
COc1ccc(C(=O)COC(=O)CNC(=O)c2cccc(OC(F)F)c2)cc1	1.5%	39	-0.4%	8%	0.9	0	-3.5
Cc1ccc(Sc2nc(-c3ccccc3)ccc2C#N)cc1	?	-8	?	21%	0.5	5	0.7
O=C(O)C1CC(Br)C(Br)CC1C(=O)O (configuration not stated)	2.1%	0	-0.1%	nt	-0.5	nt	nt
CC(C)(C)c1nnc(NC(=O)c2ccc3c(c2)OCO3)s1	1.4%	21	0.1%	22µM*	0.3	0	-1.5
CCOc1ccccc1C(=O)NCC(=O)OCCOc1cccc(Cl)c1	-0.3%	19	-1.8%	-5%	0.3	15	2.4
COc1cccc(C2SCC(=O)N2c2cccc(C)c2)c1OC (configuration not stated)	1.0%	-13	-0.9%	3%	-1.1	3	2.1
Cc1ccc(NS(=O)(=O)c2ccccc2[N+](=O)[O-])cc1C	2.0%	-3	-1.2%	12%	2.4	-10	2.2
CCC(C)(C)n1nnnc1C(C(C)C)N1CCSCC1 (configuration not stated)	-0.2%[38.3 µM]	-9	0.1%	13%	0.8	-3	-2.1
C[C@H](NC(=O)OC(C)(C)C)c1nnc(SCC(N)=O)o1	-2.0%[38.3 µM]	-2	-0.5%	9%	-0.7	-5	4.0
Cc1cccc(C)c1Nc1c(-c2ccccn2)nc2ccccn12	?	22	-4.6%	16%	0.6	-13	-1.2
O=C(Nc1ccccc1C(=O)Nc1ccncc1)c1ccccc1	1.2%	42	nt	13%	-0.4	-25	0.8
Cc1ccc(NC(=O)CN2CCC(C(=O)c3ccc4c(c3)OCCO4)CC2)cc1	-2.3%	24	-4.4%	12%	1.9	-9	3.8
CC(C)(C)c1ccc(S(=O)(=O)c2cnc(SCC(=O)Nc3ccc4c(c3)OCCO4)[nH]c2=O)cc1	0.6%	-25	1.8%	nt	0.6	nt	nt
COc1cc(CCC(=O)NNC(=O)c2ccc(Cl)cc2)cc(OC)c1OC	2.8%	-3	nt	3%	-0.8	25	-6.2
C=C1C=C(C(F)F)n2ncc(C(=O)NCCc3ccc(Cl)cc3)c2N1	0.2%	nt	-0.5%	nt	-1.4	nt	nt
CCOc1ccc(-c2cc(C(=O)OC)nc3c2c(=O)n(C)c(=O)n3C)cc1	1.4%	7	nt	8%	-0.6	12	0.3
CCOc1ccccc1OCC(=O)Oc1ccc(C)c(C)c1	-0.8%	nt	-0.4%	5%	nt	2	5.0
CCCCC1(C)NC(=S)N2N1C(=S)NC2(C)CCCC (configuration not stated)	-0.1%	14	nt	56µM*	1.4	-16	2.3
CC(C)Cn1cnc2c(SCc3ccc(Cl)cc3)nc(N)nc21	14%	-3	-0.9%	nt	-0.4	nt	nt
CCc1ccc(C2c3c(-c4ccccc4O)n[nH]c3C(=O)N2Cc2cccnc2)cc1 (configuration not stated)	0.3%	1	1.0%	nt	0.5	nt	nt
C[C@H]1CN([C@@H](C)CO)C(=O)CCCn2nncc2CO[C@H]1CN(C)C(=O)Nc1ccnc(N2CCOCC2)c1	-1.8%	5	-24%	nt	-0.7	nt	nt
CCC(=O)N1CCc2cc(S(=O)(=O)Nc3ccccc3C)ccc21	1.1%	87	nt	17%	1.2	-19	1.7

Single records (already shown). Values in the order: PINK1 expr mod	TRPML1 inh	ClpP mod	Sfp inh	TRPML1 ag	TRPV1 potentiator	Menin MLL FP FL
CCOc1ccc(-c2cc(C(=O)OC)nc3c2c(=O)n(C)c(=O)n3C)cc1 is listed with 1.4%	7	nt	8%	-0.6	12	0.3
C=C1C=C(C(F)F)n2ncc(C(=O)NCCc3ccc(Cl)cc3)c2N1 is listed with 0.2%	nt	-0.5%	nt	-1.4	nt	nt
